# Bead autofluor: compound fluorescence in toxin protease inhibitor counterscreen. compound autofluorescence counterscreen, microsphere flow cytometry; hits give high values. fluorescence intensity (no concentration beside the values). 360,000 compounds, 3.1% hits;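 active = at least 3 SD above the mean of all compounds, about 16000 in these data; inconclusive = too few beads counted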;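 note: 100 nL of 1 mM stock went into each well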
# ugtP null kill: growth inhibition of ugtP-null S. aureus, primary screen, RN4220 ugtP deletion, OD600; 16 h; some inactives read as strong as hits; growth inhibition, % (no concentration beside the values); 330,000 compounds, 0.54% hits;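 active = z-score under -3 and OD600 up to 0.15 on both plates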;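 note: plate controls were untreated wells for no effect and antibiotic for full effect; wells of about 80 µL received 100 nL stock; the first replicate is given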
# BJeLR viability: MLPCN primary cell-based screen for lethality selective to Ras in HRASV12 cells. BJeLR (HRASV12) viability, CellTiter-Glo ATP luminescence, 48 h; reference of the scale not given here. inhibition, % (concentration not given with the values). 300,000 compounds, 0.17% hits;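 active = replicate mean above 50%; inconclusive = above 50% but judged a plate artefact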;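 note: 50 nL library stock added to about 25 µL; numbers are from one replicate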
# Mtb hypoxia inh: PubChem AID 1159583. M. tuberculosis hypoxia-regulated fluorescent reporter, fluorescence. fluorescence inhibition, % (concentration not given with the values). 300,000 compounds, 0.1% hits;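 active = 35 to 45% if threefold the growth effect, above 45% if 1.5-fold the growth effect; inactive = the rest, general growth blockers included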;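 note: wells of about 50 µL received 100 nL stock; 0% = vehicle wells and 100% = reference inhibitor wells; whole bacteria with a GFP reporter of the hypoxia response; strong numbers were not always called active; many hits fall short of the cut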
# PrP UTR inh: inhibition of PrP 5' UTR reporter expression | cell-based PrP 5' UTR mRNA reporter, plate reader | AID 488862, 2010 | inhibition, % (concentration not given with the values) | 340,000 compounds, 0.35% hits;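 active = every replicate at 50% or more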;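 note: 0 = median of the neutral control wells; tested in H4 reporter cells; numbers are from one replicate; inactives centre near -14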
# RN4220 kill: growth inhibition of S. aureus RN4220, primary screen, OD600; 16 h; inhibition, % (concentration not given with the values); 330,000 compounds, 0.33% hits;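 active = z-score of -3 or lower and OD600 up to 0.18 on both plates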;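 note: plate controls were untreated cells for no effect and reference antibiotic for full effect; stock transfer was 100 nL into about 80 µL; one replicate is shown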
# Mtb hypoxia inh growth: recorded beside Mtb hypoxia inh, whose call it bears; growth inhibition, %; measured here: M. tuberculosis growth (absorbance);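 0% = vehicle and 100% = reference antibiotic; read after six days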
# * hit, by the source's call; ? = inconclusive; · = no result given. Hits appear at their usual frequency. Share with any hit: about 3.9%.
SMILES,Bead autofluor,ugtP null kill,BJeLR viability,Mtb hypoxia inh,Mtb hypoxia inh growth,PrP UTR inh,RN4220 kill
O=C(c1cc2c(=O)n3ccccc3nc2s1)N1CCN(c2cccc(Cl)c2)CC1,5917,-18,-1,2,0,-20,-0.3
O=C(NCc1ccc2c(c1)OCO2)C1CCC(CNc2c(N3CCCCC3)c(=O)c2=O)CC1 (stereo not drawn),5682,3,-2,-4,5,-4,1.5
COc1ccccc1NS(=O)(=O)c1ccc2ccccc2c1,4170,-6,-1,10,3,-22,8.9
O=C(c1ccccc1F)N(Cc1ccc(F)cc1)C1CCS(=O)(=O)C1 (stereo not drawn),3064,-9,5,11,8,-5,-13
O=C(NCCc1ccc([N+](=O)[O-])cc1)c1ccccc1,6262,6,6,14,23,-20,3.3
O=C(NCc1cccs1)C1CCN(S(=O)(=O)c2ccccc2F)CC1,3238,8,-5,6,3,-5,0.8
O=C(COC(=O)c1cccc([N+](=O)[O-])c1)NCc1cccs1,4481,0,-2,-4,-3,-17,1.6
O=C(Nc1ccccc1)c1nc[nH]c1C(=O)NCc1ccccc1,3210,0,·,6,3,-8,-0.4
Cc1cc(C)c(S(=O)(=O)Nc2cccnc2)c(C)c1,22484*,-2,2,0,-2,-24,7.0
CCOc1ccccc1N1CC(C(=O)N(CC)CC(=O)Nc2ccc3c(c2)OCCO3)CC1=O (stereo not drawn),4577,2,9,5,-3,-11,1.3
COc1ccc(C(=O)NN)cc1COc1ccc(Br)cc1,19591*,1,-12,8,4,-6,4.3
C#Cc1ccc([C@@H]2C=C(C(=O)NCc3ccccc3)O[C@H](OCC)[C@H]2CCCO)cc1,4080,1,2,6,4,-3,-12

# Shown with tabs: entries from further up
canonical_smiles	Bead autofluor	ugtP null kill	BJeLR viability	Mtb hypoxia inh	Mtb hypoxia inh growth	PrP UTR inh	RN4220 kill
O=C(c1cc2c(=O)n3ccccc3nc2s1)N1CCN(c2cccc(Cl)c2)CC1	5917	-18	-1	2	0	-20	-0.3
O=C(Nc1ccccc1)c1nc[nH]c1C(=O)NCc1ccccc1	3210	0	·	6	3	-8	-0.4

# (listing goes on)
SMILES,Bead autofluor,ugtP null kill,BJeLR viability,Mtb hypoxia inh,Mtb hypoxia inh growth,PrP UTR inh,RN4220 kill
COc1ccccc1N1CCN(C(=O)c2cc(-c3ccc(F)cc3)[nH]c2C)CC1,3888,-8,7,-2,-5,-13,-2.6
Cc1cccc(N2CC(c3nc4ccccc4[nH]3)CC2=O)c1 (stereo not drawn),2194,-2,-5,5,3,-13,3.5
COc1ccccc1CNC(=O)CSc1n[nH]c(N)n1,5942,1,-7,14,-1,-11,2.8
COc1cccc(-c2cc(C(=O)NCC3CCCO3)c3cc(Br)cc(C)c3n2)c1 (stereo not drawn),5532,1,7,3,-1,-11,-0.8
O=c1c2c([nH]c3ccc(Br)cc13)CCCC2,3079,0,2,8,8,-13,9.7
Cc1sccc1C=NNC(=O)c1cccc2ccccc12,·,4,·,9,6,·,1.6
Cc1ccc(C2(C)NC(=O)N(CC(=O)NNC(=O)c3ccoc3C)C2=O)cc1 (stereo not drawn),6217,10,-6,3,3,-14,3.9
Cc1[nH]n(-c2ccccc2)c(=O)c1C(=O)c1cccc(F)c1,3183,-4,8,13,6,62*,24
O/N=C/Cc1[nH]c2ccccc2c1-c1ccccc1,4111,·,7,·,·,-22,·
CNc1ccc(N=Nc2cccc3ncccc23)cc1,3506,-13,·,15,4,-19,4.7
CC(C)Cc1cc(C(=O)NCCCN2CCOCC2)no1,5905,13,2,10,1,-9,1.6
COc1ccccc1N1CCN(CC(=O)c2c(C)[nH]c3cc(C)ccc23)CC1,2528,0,-6,·,·,-5,5.5

# Another view of 6 compounds above.
smiles	Bead autofluor	ugtP null kill	BJeLR viability	Mtb hypoxia inh	Mtb hypoxia inh growth	PrP UTR inh	RN4220 kill
Cc1sccc1C=NNC(=O)c1cccc2ccccc12	·	4	·	9	6	·	1.6
Cc1ccc(C2(C)NC(=O)N(CC(=O)NNC(=O)c3ccoc3C)C2=O)cc1 (stereo not drawn)	6217	10	-6	3	3	-14	3.9
Cc1[nH]n(-c2ccccc2)c(=O)c1C(=O)c1cccc(F)c1	3183	-4	8	13	6	62*	24
O/N=C/Cc1[nH]c2ccccc2c1-c1ccccc1	4111	·	7	·	·	-22	·
CNc1ccc(N=Nc2cccc3ncccc23)cc1	3506	-13	·	15	4	-19	4.7
CC(C)Cc1cc(C(=O)NCCCN2CCOCC2)no1	5905	13	2	10	1	-9	1.6

# Carrying on:
SMILES,Bead autofluor,ugtP null kill,BJeLR viability,Mtb hypoxia inh,Mtb hypoxia inh growth,PrP UTR inh,RN4220 kill
CC(=O)c1ccc2c(c1)C1C=CCC1C(c1cc3c(cc1Br)OCO3)N2 (stereo not drawn),2928,·,25,·,·,-19,·
CC(C)CCSc1nnc(N)s1,3785,9,-6,6,6,-30,3.3
NS(=O)(=O)c1ccc(CCNC(=O)c2ccccc2F)cc1,16685*,0,1,-5,-3,-17,-0.6
CC1(C2CC2)NC(=O)N(CC(=O)N2CCN(S(=O)(=O)c3ccc(F)c(F)c3)CC2)C1=O (stereo not drawn),3968,0,·,2,13,-22,0.5
COc1ccc(N)cc1C#N,5556,6,-2,·,·,-6,-0.9
CCOc1cc(N2CCOCC2)c(OCC)cc1NC(=O)C1=COCCO1,8351,4,·,10,4,-16,7.1
Cc1ccc(NC(=O)C2=C(O)CCn3c2nc2ccccc23)cc1,5868,-2,-3,19,7,-20,7.0
CCc1ccc(CNC(=O)C2CCCN(c3nnc(C)c4c(C)n(-c5ccccc5)nc34)C2)cc1 (stereo not drawn),20786*,5,-12,-6,7,-18,11
COc1cccc(C(=O)NCCCNC(=O)c2cccnc2)c1,3746,1,6,12,-6,-9,2.0
Cc1ccc(NC(=O)COC(=O)C2CC3CCCC(C2)C3=O)c([N+](=O)[O-])c1 (stereo not drawn),3055,9,·,16,31,-3,1.8
CCOC(=O)c1c(C)[nH]c(C(=O)OCC(=O)c2ccc3c(c2)NC(=O)CO3)c1C,3799,-1,-6,-1,-4,-5,-2.6
COCCNC(=S)N=Nc1c(O)[nH]c2ccc([N+](=O)[O-])cc12,5197,-2,-10,16,5,-5,4.7
COCCN(C(=O)CSCC(=O)Nc1cccc(C)c1)c1c(N)n(Cc2ccccc2)c(=O)[nH]c1=O,5348,8,-8,7,6,-6,-1.5
CCN(CC)CCCNC(=O)CN1C(=O)CSc2ccc(S(=O)(=O)N3CCOCC3)cc21,2243,8,6,15,5,-23,2.2
CCOC(=O)C1=NOC(CNC(=O)C2=NOC(CNC(=O)c3c(-c4ccccc4Cl)noc3C)C2)C1 (stereo not drawn),3510,3,-14,·,·,-2,4.3
O=CNCc1nc2ccccc2n1CCCc1ccccc1,3373,4,-7,3,-5,-30,3.5
COC(=O)C1=C(N)Oc2cc(C)n(CC3CCCO3)c(=O)c2C1c1ccc(Cl)c(Cl)c1 (stereo not drawn),7890,6,-2,-1,-4,-13,-3.0
CC1=NNC(=O)C1Cc1c(Cl)cccc1Cl (stereo not drawn),3460,5,-2,-2,-21,2,2.6
CC(C)C12CN3CC(C(C)C)(CN(C1)C3c1ccccc1O)C2=O (stereo not drawn),3501,-6,1,0,8,-11,-1.9
CN(/N=C/c1cc(Br)cc(Br)c1O)c1ccccc1,3587,·,-1,·,·,-26,·
CCc1ccc(/C=C2\SC(=S)N(CCC(=O)N3CCN(C)CC3)C2=O)cc1,2152,·,-1,·,·,15,·
COc1ccc(NC2CS(=O)(=O)CC2OC(=O)c2ccc(F)cc2)cc1 (stereo not drawn),5297,-2,30,-2,9,-20,7.2
Cc1cc(C)n(-c2cc(N3CCN(C(=O)c4cccc(F)c4)CC3)ccc2[N+](=O)[O-])n1,4019,7,-1,6,5,-5,7.6
O=C(Cc1ccccn1)Nc1ccccc1,22456*,-3,8,-4,-1,-3,3.0
O=C(CN1C(=O)c2cccc3cccc1c23)NCc1ccc2c(c1)OCO2,23642*,-2,-4,0,8,-8,4.0
CCN(CC)C(=O)c1ccc(S(=O)(=O)Cc2ccc(C)cc2)c([N+](=O)[O-])c1,3555,-6,-8,-9,-1,-7,-1.2
CCOC(=O)c1cc(-c2ccccc2)sc1NC(=O)c1cc(OC)c(OC)c(OC)c1,8910,-8,-7,4,5,-25,7.7
Cc1cc2c(C)nc(NN=Cc3ccc(F)cc3)nc2o1,·,1,·,-6,5,·,4.5
COC(=O)c1ccc(COc2ccc(C=NO)cc2)o1,·,2,·,13,5,·,4.9
OCCCN1CCN(CCCOc2ccccc2-c2ccccc2)CC1,8940,10,7,9,4,-49,3.4
CC(=O)COc1ccc2c(-c3ccccc3)cc(=O)oc2c1C,2811,3,6,2,9,0,2.1
O=C(NNC(=O)c1cc(F)c(F)cc1Cl)c1ccc(NS(=O)(=O)c2cccs2)cc1,6056,-2,·,-1,-4,·,0.7
Cc1ccsc1C=NNC(=S)NCc1ccccc1,·,0,·,-4,14,·,77
CCN(c1ccccc1)S(=O)(=O)c1ccc(Cl)c(NC(=O)COC(=O)c2ccc(Cl)c(N)c2)c1,2453,12,-6,10,5,-19,-0.9
OC(COC(c1ccc(Cl)cc1)c1ccc(Cl)cc1)CN1CCc2ccccc2C1 (stereo not drawn),2284,-22,-5,-15,6,-38,-1.2
CCCCNC(=O)Nc1nnc(-c2ccc(OCC)cc2)o1,3237,0,·,13,8,-29,-10
CCN(CC)S(=O)(=O)c1cccc(C(=O)NNC(=O)C2=NN(c3ccccc3)C(=O)CC2)c1,5523,1,1,9,4,-15,0.3
COCCN(C(=S)Nc1cccc(C)c1)C(C)c1cccnc1 (stereo not drawn),?,-7,21,-10,2,6,-1.2
COc1cc(C(=O)NCc2nnc(SCC(=O)NC3CCCCC3)o2)cc(OC)c1OC,5285,3,0,3,6,-17,-1.4
Cc1ccc(Cl)c(OCC(=O)Nc2cccnc2)c1,?,-4,-2,10,-2,-41,2.4
Cc1ccc(CNC(=O)CN2C(C)CCCC2C)cc1 (stereo not drawn),3370,6,11,13,9,0,7.3
S=C(Nc1ccc(Cl)cc1)Nc1ccc2cn[nH]c2c1,3795,-4,1,5,7,-16,1.1
CCC(=O)N(C)CCc1cc2c(c(OC)c1C=NNC(=O)[C@H]1C[C@@H]1c1ccccc1)OCO2,·,3,·,-6,1,·,1.3
O=C(O/N=C/c1ccc(Br)cc1)c1ccc(F)cc1,4842,·,4,·,·,-11,·
Oc1cc(Br)ccc1C=Nc1ccc(N2CCCCC2)cc1,2729,1,-6,5,6,-11,6.0
COc1cc(OC)cc(-c2oc(=O)c3cc(OC)c(OC)cc3c2C#CCCO)c1,3042,8,·,14,8,-29,11
COc1ccc(OC)c(C(=O)CSc2nccc(-c3ccc(Br)cc3)n2)c1,10434,-2,5,7,4,-25,-3.4
CCCN(Cc1ccccc1)C(=O)Nc1ccc2c(c1)nnn2C,10658,-4,-4,3,-4,-28,-1.9
C[C@@H](C(=O)Nc1ccccc1N1CCOCC1)N1C(=O)C2CCCCC2C1=O (stereo partly drawn),3036,10,·,12,8,-18,4.5
CSc1ccccc1-c1nnc(-c2ccc(Cl)cc2)o1,6074,-7,2,·,·,-71,-7.0
COC(=O)Cc1[nH]nc2c1C(c1c[nH]c3ccccc13)C(C#N)=C(N)O2 (stereo not drawn),8351,-12,1,9,8,-30,6.4
Cn1cnc(S(=O)(=O)Nc2ccc(OC(F)F)cc2)c1,5513,3,9,-16,0,-19,-4.6
Cc1ccc(C(=O)Nc2ccc(Cl)cc2C(F)(F)F)c(Cl)c1,2418,8,-15,-3,14,-26,7.4
CCOC(=O)C1(CCc2ccccc2)CCN(Cc2ccc(OC)cc2)CC1,1936,-3,5,-5,9,-11,2.2
Cc1ccc(-c2nc(NC(=O)CSc3nnc4scc(-c5ccccc5)n34)ns2)cc1,6355,5,1,·,·,1,0.5
CCSc1nc(C2CC2)cc(-c2ccco2)c1C#N,2758,14,5,·,·,-21,1.7
O=C(N=C1SC2CS(=O)(=O)CC2N1Cc1ccccc1Cl)C1CCCO1 (stereo not drawn),4345,2,0,-8,1,2,1.0
Cc1ccc(N2C(=O)C3C4C=CC(CC4)C3C2=O)c([N+](=O)[O-])c1 (stereo not drawn),4119,4,-4,-2,2,-9,3.2
CSc1nnc(SCC#N)s1,3954,1,3,0,4,·,1.6
CC1(C)C2CCC1(CS(=O)(=O)N1CCC(C(N)=O)CC1)C(=O)C2 (stereo not drawn),5700,-4,-18,-3,1,-10,1.3
CC(Cc1cccnc1)NC(=O)c1cc(COc2ccc(F)cc2Cl)on1 (stereo not drawn),5704,1,-9,10,5,-7,0.3
COc1ccc2c(c1)Sc1ccccc1N2CCN(C)C,3087,·,1,·,·,-3,·
